Screening data as filed in PubChem BioAssay.
HIV TAR-Tat = HIV-1 TAR-Tat binding disruption. HIV-1 TAR RNA, Tat peptide displacement FRET; active compounds read high. z-score (no concentration beside the values). actives 0.6% (n = 100,000). AID 1259389;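 also: score is relative to mean and SD of negative controls; some compounds called inactive have numbers as strong as hits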
CDC25B-CDK2 inh = human CDC25B-CDK2/CyclinA binding inhibition | actives 0.72% (n = 94,000) | HTRF CDC25B-CDK2/CyclinA binding, anti-His/anti-Flag; active compounds read high | P30305+P24941 | z-score (test concentration not listed) | AID 1259370;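 also: score is relative to mean and SD of negative controls; strong numbers were not always called active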
The depositor's hits bear a star; · = no result given.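 The calls were made as follows: active = z-score from 3 up in half or more of its runs; inactive = the rest.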

| mol | HIV TAR-Tat | CDC25B-CDK2 inh |
| --- | --- | --- |
| COc1ccc(Nc2cc(SCc3ccco3)ncn2)cc1 | 2.48 | -1 |
| O=C1C=CC(=O)N1c1ccc(Oc2ccc(Cl)cc2)cc1 | · | -0.27 |
| CCN(CC)c1ncnc2sc(C(=O)O)c(C)c12 | 2.23 | · |
| COc1ccc(-c2[nH]nc3nc(-c4ccc(Cl)cc4)cc(C(=O)O)c23)cc1 | 2.32 | · |
| O=C(CCCOc1ccccc1)NC1CCSC1=O (stereo not drawn) | 0.85 | -1.19 |
| C=CCSc1nc2c(c(=O)[nH]1)C(c1ccc(OC)cc1)C(C(=O)OCC)=C(C)N2 (stereo not drawn) | 2.18 | -0.52 |
| C=CCn1c(SCc2nc3ccccc3[nH]2)nnc1-c1ccccc1 | -1.36 | -1.64 |
| O=C(CCCn1c(=O)c2cccn2c2ccccc21)N1CCOCC1 | 2.27 | · |
| N#CC1=C(N)OC2=C(C(=O)CC(c3ccccc3)C2)C1c1cccc(Cl)c1 (stereo not drawn) | · | -0.96 |
| COc1cc(C2CC(=O)N3CN(Cc4ccco4)CSC3=C2C#N)ccc1O (stereo not drawn) | -0.81 | 4.92* |
| CCN1CCN(c2ccc(Nc3ccnc4c3ccc3nsnc34)cc2)CC1 | 1.67 | -2.86 |
| COc1ccc(C2N(c3cc(Cl)ccc3OC)C(=O)C3CCCN32)cc1OC (stereo not drawn) | -1.37 | -0.45 |
| CC(=O)c1c(C)[nH]c(C(=O)NCCCN2CCCC2)c1C | · | -1.79 |
| Brc1cccc2c1NC(c1ccncc1)C1CC=CC21 (stereo not drawn) | -0.85 | -0.59 |
| CCc1nn2c(=O)cc(CSc3nnc(-c4ccc5c(c4)OCO5)o3)nc2s1 | 2.25 | -2.55 |
| CCOC(=O)CCSc1n[nH]c(=S)s1 | · | -3.65 |
| CO[C@@]1(NC(=O)C(C(=O)O)c2ccc(O)cc2)C(=O)N2C(C(=O)O)=C(CSc3nnnn3C)CO[C@@H]21 (stereo partly drawn) | 1.26 | · |
| COc1cc(C2C(C(=O)OC3CCCC3)=C(C)NC3=C2C(=O)CCC3)cc(Cl)c1O (stereo not drawn) | 1.59 | -2.52 |
| Cc1cccc(NS(=O)(=O)c2ccc3c4c(cccc24)C(=O)N3)c1 | · | -0.37 |
| COc1ccc2c(=O)c(NC(=O)NCc3ccc(F)cc3)c[nH]c2c1 | 0.01 | 6.17 |
| COc1cccc(Nc2nc(NCc3ccco3)nc3c2cnn3C)c1 | 0.43 | · |
| O=C(c1ccc2c(c1)sc1nc(-c3ccccc3)cn12)N1CCc2ccccc21 | 1.28 | · |
| Cc1nn(S(=O)(=O)c2ccc3ccccc3c2)c(C)c1S(=O)(=O)N1CCC(C)CC1 | 0.7 | · |
| Fc1ccccc1-c1noc(N2CCN(Cc3ccc4c(c3)OCO4)CC2)n1 | 0.56 | · |
| O=C(CCCn1c(=O)c2cccn2c2ccc(F)cc21)NC1CCCCC1 | 1.06 | · |

A different layout for 2 compounds above:
The line under a structure holds: HIV TAR-Tat | CDC25B-CDK2 inh
N#CC1=C(N)OC2=C(C(=O)CC(c3ccccc3)C2)C1c1cccc(Cl)c1 (stereo not drawn)
→ · | -0.96
COc1ccc(C2N(c3cc(Cl)ccc3OC)C(=O)C3CCCN32)cc1OC (stereo not drawn)
→ -1.37 | -0.45

Continued:
| mol | HIV TAR-Tat | CDC25B-CDK2 inh |
| --- | --- | --- |
| Cc1ccc(S(=O)(=O)N=S(C)(C)=O)cc1 | · | -1.36 |
| CC1CCN(S(=O)(=O)c2ccc3c(ccn3CC(=O)NC3CC3)c2)CC1 | -0.27 | · |
| O=C(NCc1ccccc1)C1=Cc2sc3c(c2CS1)CCCC3 | -0.87 | · |
| C=CCOC(=O)C1C(c2ccc(C(C)C)cc2)c2c([nH][nH]c2=O)CC1(C)O (stereo not drawn) | 1.29 | -0.83 |
| COc1ccccc1OCc1nc2c3c(C)c(C)oc3ncn2n1 | 0.43 | · |
| Cc1cc(C)c2c(C)nn(C3CCOC(C)(C)C3)c2n1 (stereo not drawn) | · | 0.09 |
| Cc1cccc(C)c1NS(=O)(=O)c1ccc(N)cc1 | · | -0.12 |
| O=c1c(-c2ccc3c(c2)CCCC3)c(N2CCN(c3cccc(Cl)c3)CC2)c1=O | 0.9 | · |
| Cc1ccccc1-n1cc(-c2ccccc2)c2c(N(C)C)ncnc21 | 1.06 | 1.47 |
| Cc1cc2nc(CSc3ccccc3N)c(=O)[nH]c2cc1C | -0.63 | · |
| CCc1nn(CC(=O)NCc2ccccn2)c(=O)c2cc3occc3n12 | -0.93 | -0.14 |
| Cc1ccc(C2C3=C(CC(C)(C)CC3=O)Nc3ccccc3N2S(C)(=O)=O)cc1 (stereo not drawn) | -3.22 | · |
| CCOC(=O)CSc1nc2nc(C)cc(C)c2c(=O)[nH]1 | 0.4 | -1.21 |
| CCC(C)NC(=O)c1cc2c(s1)-c1ccc(Cl)cc1SC2 (stereo not drawn) | 0.74 | -0.56 |
| CN1C(=O)Cc2cc(NS(=O)(=O)c3ccc(C(C)(C)C)cc3)ccc21 | -0.33 | · |
| CN(C)CCCOC(=O)c1cnn2c(C(F)(F)F)cc(-c3ccccc3)nc12 | 2.04 | -0.54 |
| CC1(C)CC(=O)C2=C(C1)Nc1ccccc1N(C(=O)NCC1CCCO1)C2c1ccccc1 (stereo not drawn) | 0.54 | · |
| Cc1ccc(S(=O)(=O)Nc2cccnc2)cc1 | · | 0.18 |
| Cc1cccc(OCCSc2nnc(Cc3c(C)nc4c(C)cccn4c3=O)n2C)c1 | -0.59 | -0.8 |
| N=c1c2c3c(sc2ncn1N)CCC3 | · | 0.31 |
| COc1ccc(S(=O)(=O)Nc2cccc(-c3nc(-c4cccc(Br)c4)co3)c2)cc1 | 0.41 | · |
| O=C(O)CC(=O)NC(=O)NCc1ccccc1 | · | 0.19 |
| C=CCOC(=O)C1=C(C)Nc2[nH]c(=O)[nH]c(=O)c2C1c1ccc(OC)c(OC)c1 (stereo not drawn) | · | 0.61 |
| CCOC(=O)CCC(=O)c1c(C)oc2ccc(OC)cc12 | 0.75 | 3.58 |
| CCc1nnc(SCC(=O)Nc2ccc(Br)cc2F)c2cc3sccc3n12 | 3.43 | · |

Entries of single compounds as entered above. Values in the order: HIV TAR-Tat, CDC25B-CDK2 inh
Entry for `CN(C)CCCOC(=O)c1cnn2c(C(F)(F)F)cc(-c3ccccc3)nc12` → 2.04, -0.54
Entry for `O=C(CCCn1c(=O)c2cccn2c2ccc(F)cc21)NC1CCCCC1` → 1.06, ·
Entry for `C=CCSc1nc2c(c(=O)[nH]1)C(c1ccc(OC)cc1)C(C(=O)OCC)=C(C)N2` (stereo not drawn) → 2.18, -0.52

New compounds follow.
| mol | HIV TAR-Tat | CDC25B-CDK2 inh |
| --- | --- | --- |
| O=C(c1cc(CN2CCOCC2)on1)N1CCN(C(=O)c2ccco2)CC1 | 0.49 | · |
| Cc1cccc(Cc2c(C)nc3c(C(=O)O)cnn3c2C)c1 | · | -0.8 |
| Cc1ccc(-c2cc(C(=O)O)c3ccccc3n2)s1 | 0.23 | 0.92 |
| CCOC(=O)c1cnc(SC)nc1NCc1ccccn1 | -0.96 | -0.65 |
| CCC(C)NC(=O)c1nn(-c2ccc(Cl)cc2)c(=O)n(C)c1=O (stereo not drawn) | 1.52 | · |
| Cc1c(-c2nsc(NC(=O)c3cccs3)n2)nnn1-c1cc(F)ccc1F | -0.68 | · |
| C=Cc1ccc(CN2C(=O)N(c3ccc(OCC)cc3)C3CS(=O)(=O)CC32)cc1 (stereo not drawn) | 1.65 | -1.47 |
| Cc1cc(C)cc(N2C(=O)CCN(Cc3ccccc3)C2=O)c1 | · | -4.37 |
| O=C(Nc1cccc(-c2nc3ccccc3[nH]2)c1)c1ccc2c3c(cccc13)CC2 | · | -15 |
| CSc1ccc(C(Nc2ccccn2)c2oc(CO)cc(=O)c2O)cc1 (stereo not drawn) | · | 0.12 |
| CCOC(=O)c1sc(N2C(=O)c3oc4ccccc4c(=O)c3C2c2cccc(OCC)c2)nc1C (stereo not drawn) | 0.35 | 0.29 |
| O=C(NC1CCCCC1)N1CC2CCCN2c2ccccc21 (stereo not drawn) | 2.5 | -3.28 |
| Cc1occc1-c1nnc2sc(/C=C/c3cccc(Cl)c3)nn12 | -1.96 | -1.96 |
| CSC(=NC#N)N1CCN(C(=NC#N)SC)CC1 | · | -1.97 |
| Cc1cc(NC(=O)c2noc3c2CC(C(C)(C)C)CC3)n(-c2ccccc2)n1 (stereo not drawn) | -0.65 | 0.02 |
| CC(=O)N1N=C(c2cccc(Cl)c2)OC1c1cccc2ccccc12 (stereo not drawn) | 0.44 | · |
| Cc1cc(Cl)ccc1OCc1nc(-c2ccc(NS(=O)(=O)c3cccs3)cc2)no1 | 0.72 | · |
| CC1CCCN(S(=O)(=O)c2ccc3c(c2)CCN3C(=O)CCCC(=O)O)C1 (stereo not drawn) | -0.45 | -1.07 |
| CCSc1nnc(NC(=O)CSc2nccn2-c2cc(C)cc(C)c2)s1 | · | -1.03 |
| Cc1ccc(Nc2nc(Nc3ccccc3)c3cnn(C)c3n2)cc1 | 1.17 | · |
| CC(C)Cn1cc(NC(=O)N(Cc2ccco2)C2CCCCC2C)c2ccccc2c1=O (stereo not drawn) | 0.19 | · |
| O=c1[nH]c2ccc(S(=O)(=O)Nc3cccc(F)c3)cc2s1 | · | -0.62 |
| CCSc1nnc2c(n1)OC1(Nc3ccccc3-2)C(=O)Nc2ccc(Cl)cc21 (stereo not drawn) | · | -1.03 |
| CCOC(=O)CSc1ccc([N+](=O)[O-])cc1Cl | · | -1.62 |
| CS(=O)(=O)Nc1cccc(C2=NN(C(=O)CCC(=O)O)C(c3ccccc3)C2)c1 (stereo not drawn) | · | -3.18 |

(continued)
| mol | HIV TAR-Tat | CDC25B-CDK2 inh |
| --- | --- | --- |
| COc1ccc(C(=O)Nc2cccc(-c3nc4ccccc4[nH]3)c2)cc1 | · | -3.79 |
| CCOC(=O)CCSc1nc(-c2ccccc2)cc(C(F)(F)F)n1 | 0.56 | -0.87 |
| CCN(CC)CCNC(=O)c1cc2c(s1)-c1ccc(Cl)cc1S(=O)(=O)C2 | 1.96 | -0.62 |
| Cn1c(/C=C/c2cccc(Oc3ccccc3)c2)c([N+](=O)[O-])c(=O)n(C)c1=O | 1.25 | 0.88 |
| Cn1c(=O)c2sccc2n2c(CCCC(=O)Nc3ccc(F)c(F)c3)nnc12 | -0.07 | -0.49 |
| CC(=O)N1c2ccccc2C(=O)C1N1CCC(N2CCCCC2)CC1 (stereo not drawn) | 0.98 | · |
| c1ccc(C(NCc2cccnc2)(c2ccccc2)c2ccccc2)cc1 | · | -1.79 |
| COCCc1nn2c(=O)cc(COC(=O)c3ccc(Cl)cc3)nc2s1 | -0.71 | · |
| O=C(O)c1cc2ccccc2[nH]1 | 1.94 | · |
| Cc1ccc(Nc2c3c(nc4ncnn24)CCCC3)cc1F | 1.55 | · |
| CCCC(O)c1nc2ccccc2n1Cc1ccc(Br)cc1 (stereo not drawn) | -0.75 | -1.68 |
| O=c1[nH]c(Nc2ccc3c(c2)OCCO3)nnc1Cc1ccccc1Cl | -1.38 | -1.57 |
| C=CCn1nnc(NCc2ccc(Br)cc2)n1 | 0.07 | · |
| CCN(CC)CCNc1cc(C)nc2c(-c3ccc(F)cc3)cnn12 | -0.77 | -2.17 |
| CC(C)n1c(SCC(N)=O)nc2c(oc3ccccc32)c1=O | 1.41 | -1.78 |
| CCCCc1nn2c(=O)cc(COC(=O)c3cccs3)nc2s1 | 1.05 | · |
| COc1ccc(C2CC(=O)N3C(=C2C#N)SCC3(O)c2ccc(F)cc2)cc1 (stereo not drawn) | · | -1.53 |
| Cc1ccc(C)c(NC(=O)CCc2nc(CSc3nc4cc(C)ccc4o3)no2)c1 | 1.41 | · |
| CCn1c2ccccc2c2nnc(NCc3ccccc3)nc21 | 0.06 | -1.06 |
| CC1CCN(S(=O)(=O)c2nnc(NC(=O)C(C)C)s2)CC1 | 1.08 | -0.75 |
| CSc1c(C#N)c(N)nc2sc(C(=O)c3ccccc3)c(N)c12 | · | 0.35 |
| O=C(Nc1cccc(F)c1)c1ncoc1-c1ccco1 | 1.99 | · |
| O=C1/C(=C/c2cccs2)COC/C1=C\c1cccs1 | · | -1.82 |
| O=C1CC(N2CCN(CCO)CC2)C(=O)N1c1ccccc1 (stereo not drawn) | 2.13 | -0.19 |
| COc1cc(NC(=O)N2c3ccccc3Sc3ccccc32)cc(OC)c1 | 1.31 | -3.57 |

Remaining list, next part.
| mol | HIV TAR-Tat | CDC25B-CDK2 inh |
| --- | --- | --- |
| Clc1cccc(COc2cnnc3ccccc23)c1 | 1.13 | -1.09 |
| O=C(c1ccc(-c2nc(-c3ccccc3)no2)cc1)N1CCn2c1nc1ccccc12 | 0.34 | · |
| O=C1CC(=O)N2C=CC=CC2=N1 | · | -2.63 |
| O=C(CSc1nc(-c2ccccc2)cc(C(F)(F)F)n1)Nc1ccc2c(c1)OCO2 | -1.51 | -0.99 |
| O=C(CCCCCn1c(=S)[nH]c2ccsc2c1=O)NCC1CCCO1 (stereo not drawn) | · | -1.04 |
| CC1CCCN(C(=O)Cn2c(=O)oc3cc(S(=O)(=O)N4CCCCC4C)ccc32)C1 (stereo not drawn) | 1.86 | · |
| CCCCN1C(=O)c2ccc(-c3ccco3)n2CC1(C)C(=O)NC1CCC(C)CC1 (stereo not drawn) | -0.05 | · |
| CCOc1ccccc1CC1C(=O)Nc2ccc(Br)cc21 (stereo not drawn) | 0.32 | -2.09 |
| C=CCSc1ncc(Cl)c(C(=O)N(Cc2ccccc2)C2CCS(=O)(=O)C2)n1 (stereo not drawn) | 2.68 | -1.88 |
| CC(=O)NS(=O)(=O)c1ccc(NC(=O)CCN2C(=O)/C(=C/c3ccccc3)SC2=S)cc1 | · | -2.46 |
| O=C(O)CCc1nnc2ccc(NCc3ccco3)nn12 | -0.11 | -1.51 |
| O=C(CSc1nc(-c2ccccc2)nc2cc(=O)[nH]n12)NCCc1ccc(Cl)cc1 | -0.34 | · |
| Cc1nc2sc3ccccc3n2c(=O)c1S(=O)(=O)NCCc1ccc(Cl)cc1 | 0.34 | -0.75 |
| CN(C)CCNCC(=O)NCc1ccc2c(c1)OCO2 | 0.96 | -0.42 |
